Cruzain noTriton = cruzain (T. cruzi) inhibition without detergent; 200,000 tested, 2.3% active; purified cruzain, Z-FR-AMC fluorescence, no detergent; P25779; Potency, µM, for the others: max response, negative = inhibition, hits mostly inhibitors;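 further: plate controls were enzyme without inhibitor for no effect and buffer without enzyme for full effect; nearly all actives have a fitted effect of over 40% in size; top concentration of the series not given in the record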
Target sequence (P25779 123-467 limits assumed): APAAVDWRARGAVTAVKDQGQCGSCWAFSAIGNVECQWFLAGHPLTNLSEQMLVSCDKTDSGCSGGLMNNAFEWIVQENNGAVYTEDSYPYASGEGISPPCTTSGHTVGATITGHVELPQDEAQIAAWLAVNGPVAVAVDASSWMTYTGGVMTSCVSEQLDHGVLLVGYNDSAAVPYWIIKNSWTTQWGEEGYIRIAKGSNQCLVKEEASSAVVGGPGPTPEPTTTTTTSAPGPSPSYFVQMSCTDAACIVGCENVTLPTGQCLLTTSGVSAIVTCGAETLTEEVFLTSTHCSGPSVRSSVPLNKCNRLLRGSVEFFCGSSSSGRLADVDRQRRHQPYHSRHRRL
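Detergent-free condition (0.00005% Triton X-100) in acetate buffer pH 5.5 with DTT. 1.5 nM enzyme and compound were pre-mixed 15 min, then 2 uM Z-FR-AMC substrate added; reaction progress from fluorescence change between first and third reads (60 s).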
SARS PLP yeast = blocks SARS-CoV papain-like protease in a yeast assay; S. cerevisiae expressing SARS-CoV PLpro, growth rescue; control for the full effect not named in the record; Potency, µM (titrated, usually from 32.9 µM), inactives show top-dose activity, positive = growth rescue; 330,000 tested, 0.19% active; AID 485353; active means well fitted rising curve with a large enough effect; inconclusive means small, poorly fitted or top-dose-only effect; inactive means no such curve, though single readings can be large or run the other way; further: 0% is about no effect; nearly all actives have a fitted effect of over 55% in size; growth read by luminescence after 48 h
Cruzain inh Det = inhibitors of Trypanosoma cruzi cruzain with detergent; AID 1478; 200,000 tested, 0.43% active; Potency, µM, for inactives: max response, negative = inhibition, hits mostly inhibitors; P25779; purified cruzain, Z-FR-AMC fluorescence, 0.01% Triton;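 further: plate controls were neutral wells for no effect and buffer without enzyme for full effect; nearly all actives have a fitted effect of over 40% in size; top concentration of the series not given in the record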
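15 min RT preincubation of 1.5 nM cruzain with compound, then 2 uM Z-FR-AMC added; kinetic AMC fluorescence, 60 s delta. Triton X-100 0.01%, pH 5.5.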
RE007 growth inh = less growth of the S. pombe RE007 Vpr strain. AID 651644. Potency, µM (doses to about 92.2 µM), without a hit: top-dose activity change, negative = less growth. S. pombe RE007 Vpr strain, BacTiter-Glo ATP luminescence, 24 h; control for the full effect not named in the record. 360,000 tested, 0.21% active; active = well fitted falling curve with a large enough effect; inconclusive = small, poorly fitted or top-dose-only effect; inactive = no such curve, though single readings can be large or run the other way;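 further: on the % scale 0 is the no-effect control and ±100 the full control effect; nearly all actives have a fitted effect of over 50% in size; the assay follows cell death caused by Vpr and the record does not say whether a fall means rescue or toxicity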
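Fission yeast strain RE007, carrying one chromosomally integrated HIV-1 vpr copy, was seeded at OD 0.01 in PMG+AL medium with 23 nL pinned compound. After 24 h at 30 °C and 99% humidity, viability was read by BacTiter-Glo luminescence.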
NS1 function inh = influenza NS1 inhibition; 270,000 tested, 0.4% active; Potency, µM (doses to about 46.1 µM), for inactives: top-dose activity, positive = more growth; S. cerevisiae slowed by influenza A NS1, growth recovery by OD600; active means well fitted rising curve with a large enough effect; inconclusive means small, poorly fitted or top-dose-only effect; inactive means no such curve, though single readings can be large or run the other way; further: nearly all actives have a fitted effect of over 50% in size
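Compounds were scored for reversing the slow growth caused by influenza A NS1 in S. cerevisiae, measured by optical density at 600 nm. Assay medium contained 2% galactose at pH 6.0; NS1-free yeast of the same strain were the positive control.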
Lassa entry inh = blocks Lassa virus binding to or entry into cells; Lassa virus pseudotype entry inhibition, cell reporter; control for the full effect not named in the record; Potency, µM (series often up to 37.9 µM), for the others: at the highest dose activity change, negative = inhibition, hits mostly inhibitors; 300,000 tested, 1.2% active; active means well fitted inhibition curve with a large enough effect; inconclusive means small, poorly fitted or top-dose-only effect, or effect the other way; inactive means flat fitted curve, though single readings scatter; tested in HEK293 cells; further: on the % scale 0 is the no-effect control and ±100 the full control effect; nearly all actives have a fitted effect of over 50% in size; luciferase read-out
2A StopGo = lowers the luciferase signal of an FMDV 2A StopGo reporter; human cells with a luciferase reporter of 2A StopGo recoding; control for the full effect not named in the record; Potency, µM (doses to about 57.9 µM), without a hit: top-dose signal change, negative = less light; 410,000 tested, 1.2% active; active = well fitted falling curve with a large enough effect; inconclusive = small, poorly fitted or top-dose-only effect; inactive = no such curve, though single readings can be large or run the other way; tested in HEK293T cells; further: on the % scale 0 is the no-effect control and ±100 the full control effect; nearly all actives have a fitted effect of over 45% in size; luciferase light after 4 h
Marburg entry inh = Marburg virus entry inhibition; Marburg virus pseudotyped entry inhibition, cell reporter; control for the full effect not named in the record; about a third of the inactives were read at about 46 µM; Potency, µM (doses to about 37.8 µM), inactives show at the top dose activity change, negative = inhibition, usual class: inhibitors; 300,000 tested, 1.8% active; AID 540276; active = well fitted inhibition curve with a large enough effect; inconclusive = small, poorly fitted or top-dose-only effect, or effect the other way; inactive = flat fitted curve, though single readings scatter; tested in HEK293 cells; about a fifth of its hits are not listed in these tables; further: on the % scale 0 is the no-effect control and ±100 the full control effect; luciferase read-out
Starred values were filed as active, the others as inactive; ? = inconclusive; · = not tested or not shown; & = joins results of further samples; [ ] = dose if it differs, or a comment. Unless noted, the call rests on the fitted dose curve; in most records, active means well fitted curve in the direction sought with a large enough effect; inconclusive means small, poorly fitted or top-dose-only effect, or another doubt; inactive means no such curve, though single readings can be large; an effect the other way counts as inactive or inconclusive. Potency means the concentration at half of the fitted maximal effect.

Values run as follows: Cruzain noTriton | SARS PLP yeast | Cruzain inh Det | RE007 growth inh | NS1 function inh | Lassa entry inh | 2A StopGo | Marburg entry inh
> CC(=O)Nc1ccc(S(=O)(=O)N2CCC(c3nnnn3-c3ccccc3)CC2)cc1
 : 11% | · | -1.7% | · | · | -9%[46.1 µM] | ? | ?
> CC(=O)c1sc(-c2ccc(Cl)cc2)cc1N
 : · | -2% | · | -14% | 9% | · | 17% | ·
> CCc1nnc(NC(=O)CSc2nnc(-c3c[nH]c4ccccc34)n2CCOC)s1
 : -5% | 11% | 6.6% | -2% | -7% | -6% | -15% | 0%
> Cc1ccc(-c2c(C)n3c4c(=O)n(C)c(=O)n(C)c4nc3n2CCCO)cc1
 : ? | · | -3.0% | · | · | 8.9µM* | 11µM* | ?
> CC(C)(CO)NCC#Cc1ccccc1
 : · | 0% | · | -2% | 8% | · | -5% | ·
> O=C(CCCN1C(=O)/C(=C/c2ccco2)SC1=S)Nc1ccccc1C(=O)O
 : · | -1% | · | -5% | 9% | · | -4% | ·
> CN(C)c1ccc(/C=N/Nc2nncc3ccccc23)cc1
 : · | -9% | · | -8% | -11% | ? | 7.9µM* | ?
> CC(C(=O)OCC(=O)c1ccccc1)N1C(=O)C2C3CCC(C3)C2C1=O (centres undefined)
 : · | 1% | · | -14% | · | 19%[46.1 µM] | 16% | 6%[46.1 µM]
> Cc1ccc2nc(NCC(N)=O)nc(-c3ccccc3)c2c1
 : · | 0% | · | -3% | -4% | · | -24% | ·
> CCOc1cc(CNc2ccc(N3CCOCC3)cc2)cc(Br)c1OCC
 : ? | -6% | -4.5% | -8% | 7% | -30% | ? | -13%

As entered above:
NS1 function inh with Cc1ccc2nc(NCC(N)=O)nc(-c3ccccc3)c2c1 : -4%
2A StopGo with CC(C)(CO)NCC#Cc1ccccc1 : -5%

As a short view, 9 of the compounds above:
Values run as follows: Cruzain noTriton | SARS PLP yeast | Cruzain inh Det | RE007 growth inh | NS1 function inh | Lassa entry inh | 2A StopGo | Marburg entry inh
> CC(=O)Nc1ccc(S(=O)(=O)N2CCC(c3nnnn3-c3ccccc3)CC2)cc1
 : 11% | · | -1.7% | · | · | -9%[46.1 µM] | ? | ?
> CC(=O)c1sc(-c2ccc(Cl)cc2)cc1N
 : · | -2% | · | -14% | 9% | · | 17% | ·
> CCc1nnc(NC(=O)CSc2nnc(-c3c[nH]c4ccccc34)n2CCOC)s1
 : -5% | 11% | 6.6% | -2% | -7% | -6% | -15% | 0%
> Cc1ccc(-c2c(C)n3c4c(=O)n(C)c(=O)n(C)c4nc3n2CCCO)cc1
 : ? | · | -3.0% | · | · | 8.9µM* | 11µM* | ?
> CC(C)(CO)NCC#Cc1ccccc1
 : · | 0% | · | -2% | 8% | · | -5% | ·
> O=C(CCCN1C(=O)/C(=C/c2ccco2)SC1=S)Nc1ccccc1C(=O)O
 : · | -1% | · | -5% | 9% | · | -4% | ·
> CN(C)c1ccc(/C=N/Nc2nncc3ccccc23)cc1
 : · | -9% | · | -8% | -11% | ? | 7.9µM* | ?
> CC(C(=O)OCC(=O)c1ccccc1)N1C(=O)C2C3CCC(C3)C2C1=O (centres undefined)
 : · | 1% | · | -14% | · | 19%[46.1 µM] | 16% | 6%[46.1 µM]
> Cc1ccc2nc(NCC(N)=O)nc(-c3ccccc3)c2c1
 : · | 0% | · | -3% | -4% | · | -24% | ·

Continued.
Values run as follows: Cruzain noTriton | SARS PLP yeast | Cruzain inh Det | RE007 growth inh | NS1 function inh | Lassa entry inh | 2A StopGo | Marburg entry inh
> CN1C(=O)C(=Cc2ccc(-c3cccc(Cl)c3)o2)C(=O)N(C)C1=O
 : 10% | 1% | -5.4% | · | 12% | 10% | · | 2%
> CC(C)(C)c1ccc(-c2n[nH]c(=S)n2CCCN2CCOCC2)cc1
 : · | -1% | · | 1% | 0% | ? | -15% | 2%[46.1 µM]
> COc1ccc2c(CC(=O)Nc3ccc(OC)c(NS(=O)(=O)c4ccc(F)cc4)c3)coc2c1
 : ? | -1% | 0.4% | -24% | 5% | ? | 34%[activator] | ?
> O=C(CCc1ccccc1)NNC(=O)c1ccc(Cl)cc1
 : · | 24% | · | -6% | 4% | 2% | 20% | ?
> Cc1ccc(S(=O)(=O)Nc2cc(=O)[nH]c(SCC(=O)Nc3cccc(C(F)(F)F)c3)n2)cc1
 : · | 12% | · | 3% | 1% | ? | -6% | -23%[46.1 µM]
> CC(C)c1ccc(C2NC(=O)c3ccccc3O2)cc1 (centres undefined)
 : · | 1% | · | -7% | -20% | 8% | 35%[activator] | ?
> Cc1ccc(Cn2c(CO)cnc2SCC(=O)Nc2cccc(F)c2)cc1
 : 3% | · | -2.8% | · | · | 1%[46.1 µM] | -21% | ·
> O=C(CSc1nc2ccsc2c(=O)n1-c1ccc(Br)cc1)NCc1ccccc1
 : 6% | · | 0.9% | · | · | 15%[46.1 µM] | -7% | ·
> Cc1cnc(NC(=O)NCC2CCCC(CNC(=O)Nc3ncc(C)s3)C2)s1 (centres undefined)
 : · | 2% | · | -11% | -2% | ? | -3% | ?
> CCOC(=O)C1CCN(C(=O)CCc2nc3ccccc3[nH]2)CC1
 : -1% | 3% | 8.8% | 5% | 1% | 3% | -24% | ?

The results go on.
Structure,Cruzain noTriton,SARS PLP yeast,Cruzain inh Det,RE007 growth inh,NS1 function inh,Lassa entry inh,2A StopGo,Marburg entry inh
CCCc1nc2c(sc3nc4c(cc32)COC(C)(C)C4)c(=O)n1Cc1ccco1,?,-2%,-5.7%,6%,-40%,-7%,·,?
Cc1cc(C(=O)N2CCCC(Nc3ccc(F)cc3)C2)n(C)n1 (centres undefined),·,2%,·,-11%,8%,18%[46.1 µM],18%,7%[46.1 µM]
CCC1CSC(Nc2ccc(C(=O)/C=C/c3ccc(Oc4ccccc4)cc3)cc2)=N1 (centres undefined),?,-23%,-2.0%,17%,19%,?,-36%,?
COc1cc(NC(=S)NC(=O)CCc2ccccc2)cc(OC)c1,·,3%,·,6%,?,-14%,3%,23%
CN1C(=O)Cc2cc(S(=O)(=O)N3CCOCC3)ccc21,2%,-21%,2.3%,7%,3%,-3%,-3%,?
O=c1nc(-c2ccccc2)n(-c2ccccc2)c2ncccc12,-1%,-1%,2.6%,-11%,-8%,-1%,·,8%
CCCCN(CC)CCNC(=O)c1cc2c(-c3ccccc3F)nn(C)c2s1,·,3%,·,-13%,-7%,·,-25%,0%
O=S(=O)(c1ccccc1)N1CCC(O)(CSc2ccc(F)cc2)CC1,·,-1%,·,-23%,·,?,?,?
CN1CCN(C(=O)c2ccc(CNS(=O)(=O)c3cccc(Cl)c3)cc2)CC1,·,-4%,·,14%,-11%,-2%,-3%,1%
COc1ccc2c(C=Nc3c(C)n(C)n(-c4ccccc4)c3=O)c(O)n(Cc3ccco3)c(=O)c2c1,?,0%&8%,-1.2%&-1.8%,0%&-1%,11%&19%,2%,-24%&-20%,-1%&5%
CC1CCN(CCC(=O)Nc2ccccc2)CC1,·,2%,·,-9%,·,-5%[46.1 µM],7%,?
CC(=O)c1ccc(OCc2cc(C(=O)N3CCC(c4ccncc4)CC3)no2)cc1,·,-15%,·,-7%,-11%,·,?,·
CCCCCn1c(=N)c(S(=O)(=O)c2ccc(C)cc2)cc2c(=O)n3cc(C)ccc3nc21,-9%,·,-1.4%,·,·,-2%[46.1 µM],-9%,6%[46.1 µM]
O=C1NC(=O)/C(=C\c2ccsc2)N1,·,-4%,·,8%,·,12%,-6%,13%[46.1 µM]
Cc1ccc(C)c(N2CCN(S(=O)(=O)c3ccc(-c4ccc(=O)[nH]n4)o3)CC2)c1,·,2%,·,5%,-1%,?,-10%,?
O=S(=O)(NCC(c1cccs1)S(=O)(=O)c1ccccc1)c1ccccc1 (centres undefined),3%,·,-3.6%,·,·,-2%[46.1 µM],32%[activator],·
Cc1ccc(S(=O)(=O)N(Cc2cccnc2)Cc2cc3ccccc3[nH]c2=O)cc1,·,-1%,·,4%,-12%,-18%[46.1 µM],-9%,-9%[46.1 µM]
Cc1ccc(N(CC(O)CN2C(=O)NC(C)(C)C2=O)S(=O)(=O)c2ccc([N+](=O)[O-])cc2)cc1 (centres undefined),·,1%,·,-1%,6%,·,2%,·
O=C(/C=C/c1ccc([N+](=O)[O-])cc1)Nc1cccnc1,-6%,0%,-9.3%,9%,13%,-16%,33%[activator],?
O=C(CNC(=O)c1ccc(OC(F)F)cc1)NCC1CCCO1 (centres undefined),·,-1%,·,7%,-7%,20%[46.1 µM],3%,5%[46.1 µM]
CC(C)CC(=O)NC(=S)Nc1cc(C(=O)O)ccc1Cl,-2%,12%,-2.9%,2%,4%,?,26%,-14%
CCc1nnc(NC(=O)Cn2ccc(C(F)(F)F)n2)s1,-4%,-1%,1.3%,-1%,-1%,-1%,0%,?
C=CCn1c(O)c(/C(CC)=N/NC(=S)Nc2ccccc2)c(=O)[nH]c1=O,·,0%,·,6%,4%,15%,-6%,-4%[46.1 µM]
CC(=O)N1CCc2cc(Br)cc(S(=O)(=O)NCc3ccccn3)c21,-1%,5%,3.7%,10%,2%,6%,51%[activator],-4%[46.1 µM]
CC(=O)N1N=C(c2ccccc2)CC1c1ccc(F)cc1 (centres undefined),·,0%,·,19%,-8%,·,-9%,·
COc1cccc(NP(=O)(Oc2ccccc2)Oc2ccccc2)c1,7%,-27%,-7.9%,0%,-12%,-27%,5%,?
CC(C)C(C(=O)Nc1ncn[nH]1)N1C(=O)c2ccccc2C1=O (centres undefined),2%,0%,7.3%,2%,2%,2%,-7%,-9%

Hits appear at their usual frequency; any-hit rate near 4.5%.
